Assay outcomes as filed in PubChem BioAssay.
Cruzain noTriton = inhibitors of Trypanosoma cruzi cruzain without detergent; P25779; purified cruzain, Z-FR-AMC fluorescence, no detergent; Potency, µM, for the others: max response, negative = inhibition, usual class: inhibitors; 200,000 tested, 2.3% active;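 further: plate controls were enzyme without inhibitor for no effect and buffer without enzyme for full effect; nearly all actives have a fitted effect of over 40% in size; top concentration of the series not given in the record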
Target sequence (P25779 123-467 limits assumed): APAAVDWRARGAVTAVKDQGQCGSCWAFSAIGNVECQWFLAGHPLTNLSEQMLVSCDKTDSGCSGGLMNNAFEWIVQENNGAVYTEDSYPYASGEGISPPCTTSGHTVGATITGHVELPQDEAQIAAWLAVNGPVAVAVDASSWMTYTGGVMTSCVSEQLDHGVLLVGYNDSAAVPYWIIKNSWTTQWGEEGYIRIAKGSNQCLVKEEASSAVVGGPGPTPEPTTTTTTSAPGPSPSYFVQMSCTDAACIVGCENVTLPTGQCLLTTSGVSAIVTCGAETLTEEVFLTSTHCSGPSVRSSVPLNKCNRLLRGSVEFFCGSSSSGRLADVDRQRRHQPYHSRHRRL
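Purified cruzain at 1.5 nM, pre-incubated 15 min with compound at room temperature in 100 mM sodium acetate pH 5.5, 5 mM DTT, 0.00005% Triton X-100. Reaction started with 2 uM Z-FR-AMC; AMC fluorescence increase over 60 s gives rate.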
RE007 growth inh = less growth of the S. pombe RE007 Vpr strain; S. pombe RE007 Vpr strain, BacTiter-Glo ATP luminescence, 24 h; control for the full effect not named in the record; Potency, µM (titrated, usually from 92.2 µM), inactives show at the highest dose activity change, negative = less growth; 360,000 tested, 0.21% active; active = well fitted falling curve with a large enough effect; inconclusive = small, poorly fitted or top-dose-only effect; inactive = no such curve, though single readings can be large or run the other way;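 further: on the % scale 0 is the no-effect control and ±100 the full control effect; nearly all actives have a fitted effect of over 50% in size; the assay follows cell death caused by Vpr and the record does not say whether a fall means rescue or toxicity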
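Fission yeast strain RE007, carrying one chromosomally integrated HIV-1 vpr copy, was seeded at OD 0.01 in PMG+AL medium with 23 nL pinned compound. After 24 h at 30 °C and 99% humidity, viability was read by BacTiter-Glo luminescence.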
2A StopGo = FMDV 2A StopGo reporter, luciferase signal | AID 1159524 | Potency, µM (top dose mostly 57.9 µM), for inactives: at the highest dose signal change, negative = less light | human cells with a luciferase reporter of 2A StopGo recoding; control for the full effect not named in the record | 410,000 tested, 1.2% active; active = well fitted falling curve with a large enough effect; inconclusive = small, poorly fitted or top-dose-only effect; inactive = no such curve, though single readings can be large or run the other way; tested in HEK293T cells; further: on the % scale 0 is the no-effect control and ±100 the full control effect; nearly all actives have a fitted effect of over 45% in size; luciferase light after 4 h
Marburg entry inh = inhibitors of Marburg virus binding or cell entry; Marburg virus pseudotyped entry inhibition, cell reporter; control for the full effect not named in the record; about a third of the inactives were read at about 46 µM; Potency, µM (titrated, usually from 37.8 µM), for the others: at the highest dose activity change, negative = inhibition, hits mostly inhibitors; 300,000 tested, 1.8% active; AID 540276; active = well fitted inhibition curve with a large enough effect; inconclusive = small, poorly fitted or top-dose-only effect, or effect the other way; inactive = flat fitted curve, though single readings scatter; tested in HEK293 cells; about a fifth of its hits are not listed in these tables; further: on the % scale 0 is the no-effect control and ±100 the full control effect; luciferase read-out
Cruzain Triton = inhibitors of Trypanosoma cruzi cruzain with detergent; P25779; Potency, µM, for the others: max response, negative = inhibition, most hits filed as inhibitors; 200,000 tested, 0.43% active; purified cruzain, Z-FR-AMC fluorescence, 0.01% Triton;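 further: plate controls were neutral wells for no effect and buffer without enzyme for full effect; nearly all actives have a fitted effect of over 40% in size; top concentration of the series not given in the record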
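Compounds were screened in titration against cruzain (1.5 nM) with 0.01% Triton X-100 to counter colloidal aggregation. Activity was the AMC fluorescence increase over 60 s after adding 2 uM Z-FR-AMC at pH 5.5.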
NS1 inh = influenza NS1 inhibition; 270,000 tested, 0.4% active; Potency, µM (series often up to 46.1 µM), without a hit: top-dose activity, positive = more growth; S. cerevisiae slowed by influenza A NS1, growth recovery by OD600; active means well fitted rising curve with a large enough effect; inconclusive means small, poorly fitted or top-dose-only effect; inactive means no such curve, though single readings can be large or run the other way; further: nearly all actives have a fitted effect of over 50% in size
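OD600 was taken as the measure of yeast growth restored by compound in an NS1-expressing S. cerevisiae strain. Cells had been washed out of glucose medium and diluted 1:100 into galactose -URA medium, pH 6.0.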
SARS PLP yeast = inhibitors of SARS-CoV papain-like protease in yeast; S. cerevisiae expressing SARS-CoV PLpro, growth rescue; control for the full effect not named in the record; Potency, µM (highest dose often 32.9 µM), for the others: at the top dose activity, positive = growth rescue; 330,000 tested, 0.19% active; AID 485353; active means well fitted rising curve with a large enough effect; inconclusive means small, poorly fitted or top-dose-only effect; inactive means no such curve, though single readings can be large or run the other way; further: 0% is about no effect; nearly all actives have a fitted effect of over 55% in size; growth read by luminescence after 48 h
Lassa entry inh = blocks Lassa virus binding to or entry into cells; Potency, µM (series often up to 37.9 µM), for inactives: top-dose activity change, negative = inhibition, hits mostly inhibitors; AID 540256; Lassa virus pseudotype entry inhibition, cell reporter; control for the full effect not named in the record; 300,000 tested, 1.2% active; active means well fitted inhibition curve with a large enough effect; inconclusive means small, poorly fitted or top-dose-only effect, or effect the other way; inactive means flat fitted curve, though single readings scatter; tested in HEK293 cells; further: on the % scale 0 is the no-effect control and ±100 the full control effect; nearly all actives have a fitted effect of over 50% in size; luciferase read-out
Active calls of the source: *; ? = inconclusive; · = no result given; [ ] = another dose, or the depositor's remark. Unless noted, the call rests on the fitted dose curve; in most records, active means well fitted curve in the direction sought with a large enough effect; inconclusive means small, poorly fitted or top-dose-only effect, or another doubt; inactive means no such curve, though single readings can be large; an effect the other way counts as inactive or inconclusive. Potency means the concentration at half of the fitted maximal effect.

SMILES	Cruzain noTriton	RE007 growth inh	2A StopGo	Marburg entry inh	Cruzain Triton	NS1 inh	SARS PLP yeast	Lassa entry inh
CCOc1ccc(NC(=O)c2cnn3c2NC(C)=C(C(=O)Nc2ccc(Cl)cc2)C3c2ccc(OC)c(OC)c2)cc1 (stereo not drawn)	12.0%	·	-21.5%	-1.7%[46.1 µM]	-1.2%	·	·	?
CNc1c(-n2cc(C(=O)OC)c(C(=O)OC)c2C(=O)OC)c(=O)n(C)c(=O)n1C	·	-6.2%	1.3%	-16.6%	·	-5.1%	6.2%	17.9%
CC(=O)NCc1cccc(CNC(C)=O)n1	0.1%	15.7%	-11.6%	23.5%	3.4%	1.8%	6.5%	4.8%
CC(OC(=O)c1ccc2c(=O)n3c(nc2c1)CCC3)C(N)=O (stereo not drawn)	·	8.3%	25.4%	6.9%[46.1 µM]	·	·	0.3%	·
CCc1cccc(Oc2nn[nH]n2)c1	-2.2%	20.3%	16.7%	7.9%	4.9%	0.4%	7.8%	-2.1%
Cc1ccc(Sc2c(C(=O)Nc3ccc(F)cc3F)c(C(F)(F)F)nn2C)cc1	-8.1%	-4.7%	5.1%	?	-4.0%	19.6%	-2.5%	25.3%
Cc1ccc(S(=O)(=O)N(C)CC(=O)OCC(=O)c2c(N)n(C)c(=O)n(C)c2=O)cc1	14.3%	14.6%	-27.7%	?	-2.5%	2.7%	0.6%	27.8%
COC(=O)c1cc(Sc2c(Cl)cccc2Cl)ccn1	·	15.5%	-14.0%	11.2µM*	·	-31.0%	-0.5%	-24.4%
NS(=O)(=O)c1cccc(NC(=O)c2cccs2)c1	·	5.0%	-2.0%	·	·	5.2%	1.8%	·
C=CC12C=CC=CN1C(C(=O)OC)=C(C(=O)OC)C(C(=O)OC)=C2C(=O)OC (stereo not drawn)	-2.2%	7.6%	-26.4%	-16.0%	-4.9%	-30.7%	13.0%	3.2%
CCc1ccc(-c2nn(Cc3ccccc3)cc2C=O)cc1	·	-5.1%	36.9%[activator]	?	·	·	-0.3%	-7.7%
CCn1c(C2CC(=O)N(Cc3ccccc3)C2)nc2ccccc21 (stereo not drawn)	-3.5%	6.5%	?	·	-4.0%	-12.2%	-3.7%	·
O=C(CN1CCOCC1)n1c2c(c3ccccc31)CCCC2	·	-17.0%	-28.5%	2.3%[46.1 µM]	·	·	-1.1%	3.2%
Cc1c(NC(=O)CN2C(=O)NC(C)(c3ccc(Cl)cc3)C2=O)c(=O)n(-c2ccccc2)n1C (stereo not drawn)	·	-13.3%	-14.1%	-29.9%	·	·	7.4%	-25.4%
COc1cccc(N(C(=O)c2ccco2)c2nc(-c3sc(NC(=O)c4ccco4)nc3C)cs2)c1	?	6.0%	-5.9%	-1.7%	-2.7%	17.3%	-10.1%	·
Cc1ccc(S(=O)(=O)N2CCOCC2)cc1C(=O)N1CCCCCC1	·	0.3%	-17.2%	-0.1%	·	16.2%	3.9%	-5.8%
COC(=O)c1cc(NC(=O)Nc2ccccc2OC)cc(C(=O)OC)c1	29.9%	-3.7%	?	-24.3%	-2.5%	-12.4%	-3.1%	-2.0%
CCC(Sc1ncnc2sc(C)c(C)c12)C(=O)OC (stereo not drawn)	2.6%	8.4%	0.0%	18.2%	-7.2%	-2.3%	-3.7%	2.5%
O=C(O)c1cc(-c2ccc3c(c2)OCO3)nc2ccc(Br)cc12	·	7.6%	16.7%	?	·	-7.1%	-1.0%	-3.8%[46.1 µM]
COCc1cc(CNC(=O)C2CCC(=O)N(Cc3cccc(OC)c3)C2)[nH]n1 (stereo not drawn)	·	-13.0%	-6.7%	19.8%	·	4.0%	3.0%	-0.2%
O=c1[nH]c(=S)[nH]c(O)c1/C=N/N1CCOCC1	·	6.1%	2.6%	·	·	2.5%	1.4%	·
Fc1ccc(OCCCCCn2ccnc2)cc1	·	-5.2%	-26.6%	7.0%[46.1 µM]	·	2.0%	-1.1%	13.2%[46.1 µM]
COc1ccc(C(=O)NCC(c2ccc3c(c2)OCO3)N2CCN(C)CC2)cc1 (stereo not drawn)	-3.7%	·	-10.8%	·	1.0%	·	·	22.2%[46.1 µM]
CCC(c1nnnn1C(C)(C)C)N(Cc1ccco1)Cc1cc2cccc(C)c2[nH]c1=O (stereo not drawn)	?	5.3%	-15.8%	?	-6.0%	-0.2%	14.6%	-0.3%
Cc1c(C)c2ccc(OCC(=O)N3CC[C@@]4(O)CCCC[C@H]4C3)cc2oc1=O	·	8.9%	-12.5%	·	·	-5.9%	4.1%	·

(more compounds)
SMILES	Cruzain noTriton	RE007 growth inh	2A StopGo	Marburg entry inh	Cruzain Triton	NS1 inh	SARS PLP yeast	Lassa entry inh
O=C(COC(=O)C(O)c1ccccc1)NC12CC3CC(CC(C3)C1)C2 (stereo not drawn)	6.9%	-4.4%	-14.0%	?	-5.6%	-7.8%	-7.2%	8.8%
Clc1ccc2[nH]cc(-c3nnnn3-c3ccccc3)c2c1	-1.7%	0.8%	?	?	-11.0%	-4.9%	-1.0%	?
O=C1CN(C(=O)c2cc([N+](=O)[O-])ccc2Cl)C(c2ccccc2)c2cc(F)ccc2N1 (stereo not drawn)	-4.3%	7.5%	-21.2%	?	-2.4%	-6.9%	-7.4%	-27.4%
Cc1ccc(N2C(=O)c3n[nH]c(C)c3C2c2ccc(C(C)C)cc2)cc1 (stereo not drawn)	4.0%	·	-1.6%	?	-16.2%	·	·	?
Cc1ccc(NC(=S)/C(=C(\[O-])c2ccc(F)cc2)[n+]2ccccc2)cc1	·	20.6%	34.6%[activator]	-18.6%[46.1 µM]	·	·	-8.0%	1.7%
CCN(CC)C(=O)c1c2c(nc3ccccc13)-c1ccccc1CC2	9.4%	-18.7%	-3.2%	?	-5.7%	-19.6%	-5.4%	-5.6%
COc1ccc(F)c(CN2CCCC(CO)(Cc3cccc(Cl)c3)C2)c1 (stereo not drawn)	·	-5.7%	-8.2%	·	·	9.2%	-0.1%	·
CC1(c2ccccc2)CCC(=O)NC1 (stereo not drawn)	·	-15.8%	-12.0%	1.6%	·	·	·	-0.9%
CN1C(=O)c2ccccc2NC(=O)[C@]12O[C@@H]2c1ccccc1	·	3.6%	-25.6%	·	·	-10.1%	18.1%	·
CN(C)Cc1c(O)ccc2c(-c3ccccc3)cc(=O)oc12	·	8.1%	-2.7%	13.3%[46.1 µM]	·	-6.5%	-1.2%	?
CC(Nc1ccc2c(c1)OCCO2)C(=O)N1c2ccccc2CC1C (stereo not drawn)	·	-1.8%	-27.3%	-1.6%[46.1 µM]	·	·	2.5%	8.91µM*
Cc1nc(-n2nnc(CO)c2CO)nc2c1CCC2	·	2.8%	7.9%	-1.6%[46.1 µM]	·	·	2.6%	-7.1%
CC1CN(C(=O)c2c(Br)cnn2C)CC(C)O1 (stereo not drawn)	10.2%	-8.0%	-7.7%	-4.5%	0.6%	0.6%	16.9%	-1.8%
COc1ccc(-n2ncc3c2CC(C)(C)CC3NC(=O)c2ccoc2C)cc1 (stereo not drawn)	·	9.6%	-7.3%	?	·	-4.7%	·	-15.2%
O=C(COc1ccc(Cl)cc1Cl)N/N=C/CCc1ccccc1	-2.5%	11.2%	4.8%	19.0%	-9.8%	16.7%	-1.8%	-0.1%
Cc1ccc(C2c3[nH]c4ccccc4c3C[C@H]3C(=O)N(c4ccccc4C(=O)N4CCC[C@@H]4C(=O)O)C(=O)N23)cc1 (stereo partly drawn)	·	8.5%	-18.5%	·	·	24.0%	1.6%	·
Nc1ncnc2c1cnn2C1CCCCC1	·	9.2%	-2.7%	-15.0%[46.1 µM]	·	6.6%	0.4%	17.4%[46.1 µM]
CC(C)NC(=S)Nc1ccc(Oc2ccccc2)cc1	-6.2%	-6.3%	26.4%	21.7%	-4.4%	-41.5%	-31.2%	-12.7%
O=C(Nc1ccc(Cl)cn1)c1cccc2c(Br)cccc12	·	-10.1%	-10.5%	·	·	5.5%	0.0%	·
C=CCn1c(NC(=O)c2ccco2)c(S(=O)(=O)c2ccccc2)c2nc3ccccc3nc21	18.0%	·	·	·	-4.0%	2.0%	2.0%	·
CCN(CC)S(=O)(=O)c1ccc(O)c(NC(=O)COc2ccc(S(=O)(=O)N3CCOCC3)cc2)c1	·	-15.0%	-23.9%	5.1%	·	·	·	-6.8%
Cc1cc(-c2ccc(/C=N/n3cnnc3)o2)ccc1Cl	?	9.2%	2.1%	-28.1%	-18.5%	-17.4%	-49.5%	9.6%
COc1ccc(C(=Cc2ccccc2[N+](=O)[O-])C(=O)O)cc1	·	-1.1%	37.1%[activator]	5.2%	·	·	·	5.3%
O=[N+]([O-])c1ccc(Oc2ccc(F)cc2)c2ccncc12	-2.9%	-24.9%	?	1.9%	-8.9%	-116.5%	-37.9%	-17.7%
CC1CCCC(NC(=O)COC(=O)Cc2ccsc2)C1C (stereo not drawn)	-0.8%	20.6%	1.9%	-5.2%	3.3%	-3.9%	-4.5%	?

More records follow.
SMILES	Cruzain noTriton	RE007 growth inh	2A StopGo	Marburg entry inh	Cruzain Triton	NS1 inh	SARS PLP yeast	Lassa entry inh
COc1ccc2c(c1OC)C(=O)N1C2SC[C@H]1C(=O)NC1CC1 (stereo partly drawn)	·	6.3%	-10.8%	·	·	-2.5%	2.6%	·
C=C(C)COc1ccc2c(C)c(CCC(=O)NC3CC3)c(=O)oc2c1	·	-1.0%	2.8%	·	·	-31.1%	-4.8%	·
COP(=O)(C#Cc1ccccc1)C(O)c1ccc(Br)cc1 (stereo not drawn)	·	11.1%	17.7%	24.7%	·	-0.6%	-5.0%	?
CCc1ccc(CNC(=O)CN2C(=O)COc3ccccc32)cc1	-12.3%	5.9%	·	5.7%	5.1%	-1.3%	-0.7%	2.6%
O=[N+]([O-])c1ccc(N/N=C/c2cccnc2)cc1	·	14.6%	27.3%	-1.1%	·	-54.0%	-15.4%	-4.7%
